Source: PubChem BioAssay
HCMV UL50-53 inh: disrupts HCMV UL50-UL53 complex binding. hit rate 0.15% among 190,000. HTRF UL50-UL53 interaction, normalized percent inhibition. inhibition, % (no concentration beside the values);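 active means both replicates at 50% or more, plus weaker picks with an unusually low signal ratio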;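 further: stock transfer was 100 nL into about 20 µL; 0% = negative control wells and 100% = wells with untagged competitor protein; inactives centre near -12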
GIV-Gai inh: inhibitors of GIV GBA-motif binding to rat Galpha-i3; P08753; Galpha-i3/FITC-GIV peptide fluorescence polarization, 90 min; hits give low values; scaled: aluminum fluoride 0%, vehicle 100%; percent of control (FP), % (no concentration beside the values); hit rate 0.42% among 210,000; AID 1224905;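 active means replicate mean at 85% of control or lower, very high polarization wells dropped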;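 further: wells of about 15 µL received 100 nL stock; the first replicate is given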
Target sequence (P08753 whole entry, looked up): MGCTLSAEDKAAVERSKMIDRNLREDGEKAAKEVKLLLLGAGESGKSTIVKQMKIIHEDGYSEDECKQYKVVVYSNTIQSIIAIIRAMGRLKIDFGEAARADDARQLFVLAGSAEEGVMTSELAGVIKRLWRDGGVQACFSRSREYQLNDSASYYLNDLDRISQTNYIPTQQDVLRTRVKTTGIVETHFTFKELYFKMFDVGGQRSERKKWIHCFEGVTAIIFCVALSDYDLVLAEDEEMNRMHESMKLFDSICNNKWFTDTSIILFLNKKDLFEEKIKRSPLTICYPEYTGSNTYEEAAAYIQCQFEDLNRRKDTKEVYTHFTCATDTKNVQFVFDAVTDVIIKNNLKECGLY
Sa growth inh: S. aureus growth inhibition. S. aureus RN4220 growth, OD600, 20 h, 42 °C; hits give low values. hit rate 0.53% among 170,000. relative growth, % (test concentration not listed);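 active means growth at 42 °C up to 50% and 20 or more points under that at 30 °C, or under 10% at both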;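 further: 300 nL library stock went into each well; scaled to the means of positive and negative controls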
Sa growth inh second temp: further read-out of Sa growth inh, marked with its call; relative growth, %; measured here: growth at 30 °C;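 optical density after 20 h as mean of two plates; 100% = untreated growth and lower means inhibition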
* = called active by the depositor; nt = not tested or not shown; & = joins results of further samples.

The line under a structure holds: Sa growth inh, HCMV UL50-53 inh, Sa growth inh second temp, GIV-Gai inh
COc1ccc(-c2noc(-c3ccc(N4CCN(c5ccccc5)CC4)c([N+](=O)[O-])c3)n2)cc1
    98, -25, 83, 96
CC1CCN(c2ccc(NS(=O)(=O)c3ccc(F)cc3)c(C(=O)O)c2)CC1
    nt, 4, nt, 102
N#Cc1ccccc1OCc1cc(-c2ccccc2)on1
    79, 5, 69, nt
CCCN(CCC)C(=O)CSc1nc2ccsc2c(=O)n1Cc1ccccc1Cl
    106, nt, 94, 108
CCn1c(Cc2ccccc2)nnc1SCC(=O)NC(=O)NCc1ccccc1
    79, -23, 87, nt
Cc1nnc(N2C(=O)c3oc4ccccc4c(=O)c3C2c2cccc(OCCC(C)C)c2)s1 (stereo not drawn)
    97, -22, 97, 102
Cc1ccc(NC(=O)Cn2c(CCC(=O)O)ccc2-c2cccs2)cc1
    113, -21, 88, 99
O=C(c1ccc2c(c1)N(Cc1cccc(Cl)c1)C(=O)c1ccccc1S2(=O)=O)N1CCC(Cc2ccccc2)CC1
    125, nt, 82, 104
CN1CCN(CC(=O)N2CCCC2=O)CC1
    111, 25, 81, 98
O=C(Nc1c(S(=O)(=O)c2ccccc2)c2nc3ccccc3nc2n1C1CCCCC1)c1ccco1
    61, 10, 26, nt
COc1ccc(C2CC(=O)C(C=NCC(C)C)=C(O)C2)cc1 (stereo not drawn)
    121, -1, 101, 105
COc1ccc(N2CCN(C(CNC(=O)C(=O)NCc3cccnc3)c3cccnc3)CC2)cc1 (stereo not drawn)
    73, -2, 84, 106
O=C(COc1cccc2ccccc12)Nc1ccc(CN2CCOCC2)cc1
    103, -14, 95, nt
CCCCN(CC)C(=O)c1cc2c(=O)n3cccc(C)c3nc2n1C
    110, -53, 99, 104
CN1CCN(C(=O)/C=C/c2ccccc2)CC1
    97, -43, 84, 105

(cont.)
The line under a structure holds: Sa growth inh, HCMV UL50-53 inh, Sa growth inh second temp, GIV-Gai inh
COc1ccc(NC(=O)c2ccc(Cn3cc(Cl)cn3)cc2)cc1
    96, -5, 92, nt
CSc1cccc(Nc2cc(C(=O)NC3CCCCC3)c3ccccc3n2)c1
    103, 22, 99, 110
CSc1nc(NC(C)C)nc(N(C)C(N)=O)n1
    91, 20, 114, 98
CC1CN(C(=O)Cc2ccc(-c3ccccc3)cc2)CC(C)O1 (stereo not drawn)
    98, -15, 94, 99
COc1cc(CNC2CC2)ccc1OCc1ccc2c(c1)n(C)c(=O)n2C
    nt, -12, nt, 100
COc1ccc(CCNC(=O)CN2CCCc3ccccc32)cc1OC
    94, -14, 95, nt
CC(=O)n1c(/C=C2\C=c3ccccc3=NC2=O)c(O)[nH]c1=S
    99, 15, 100, 49*
O=C(O)CCn1cc(/C=N\NC(=O)c2ccncc2)c(-c2ccccc2)n1
    94, -22, 85, 101
COc1ccc(C2=NN(C(C)=O)C(c3cn(-c4ccccc4)nc3-c3cccs3)C2)cc1 (stereo not drawn)
    106, 5, 102, 106
COc1ccccc1NC(=O)C1CCN(S(=O)(=O)c2cn(C)cn2)CC1
    88, nt, 87, 100
CCOC(=O)c1c(C)[nH]c(CCC(=O)NCCCN2CCN(c3cc(C)ccc3C)CC2)c1C
    94, nt, 76, 104
CCS(=O)(=O)c1ncc(Cl)c(C(=O)Nc2ccc(S(N)(=O)=O)cc2)n1
    nt, -71, nt, 98
Cc1noc(C)c1S(=O)(=O)N(CC(=O)N(C)c1ccc(Br)cc1)c1ccc2c(c1)OCO2
    100, 5, 97, 97
S=C(NCC1CCCO1)N/N=C1\C2CN3CCN(C2)CC1(Cc1ccccc1)C3 (stereo not drawn)
    97, -18, 86, 99
O=C(CCc1ccccc1)c1ccc2c(c1)OCCCO2
    110, 6, 99, nt

The listing continues:
The line under a structure holds: Sa growth inh, HCMV UL50-53 inh, Sa growth inh second temp, GIV-Gai inh
Cc1ccc(Sc2ccc(N3CCCC(C(=O)N4CCN(c5ccccn5)CC4)C3)nn2)cc1 (stereo not drawn)
    nt, -32, nt, 107
CC1CCN(S(=O)(=O)c2ccc(S(=O)(=O)NCc3ccccc3)cc2)CC1
    117, -16, 100, 98
CCCCc1cc(=O)oc2cc(OCC(=O)N(CC)CC)c(Cl)cc12
    68, 6, 93, 105
CCOc1ccc(OCC)c(NC(=O)CNS(=O)(=O)c2cccs2)c1
    99, -6, 84, 105
Cc1nc2c(C(=O)NCCc3ccc(Cl)cc3)c[nH]n2c(=O)c1Cc1ccc(Cl)cc1
    1.2*, -62, 1.3*, 106
CCOc1cc(C(=O)Nc2c(NC)c3ccccc3oc2=O)cc(OCC)c1OCC
    105, 5, 101, 105
CCC(C)NC(=O)C1c2ccccc2C(=O)N(CCOC)C1c1cccs1 (stereo not drawn)
    110, nt, 100, 100
Cc1ccc(-n2ncc(C(=O)NCc3ccccc3C)c2-n2cccc2)cc1
    92, nt, 96, 99
CCc1ccc(Nc2ncnc3c2nc2n3CCCCC2)cc1
    79, -21, 39, 99
CSc1nnc2c(n1)OC(c1ccco1)N(C(=O)c1ccccc1)c1ccccc1-2 (stereo not drawn)
    105, 6, 105, 101
COc1cccc(Nc2nc3ccc(C(=O)c4ccccc4)cc3n3c(C)nnc23)c1
    108, -4, 89, 113
Cc1c(Cl)cccc1NC(=O)NCc1cccnc1
    97, -35, 99, 94
COCCNC(=O)c1ccc2c(c1)ncn2-c1ccccc1OC
    104, -23, 87, 103
CC(=O)c1cc(-c2ccc(F)cc2)n(CCC(=O)NCc2ccccc2C)c1C
    131, -32, 84, 99
O=C1OCC(c2cccs2)=C1c1cccs1
    93, -65, 90, nt

(next part)
The line under a structure holds: Sa growth inh, HCMV UL50-53 inh, Sa growth inh second temp, GIV-Gai inh
CN(C1CCS(=O)(=O)C1)S(=O)(=O)c1ccc(N2C(=O)CCS2(=O)=O)cc1 (stereo not drawn)
    nt, -18, nt, 104
O=c1/c(=C/c2ccc(-c3ccc(Cl)c([N+](=O)[O-])c3)o2)sc2nc3ccccc3n12
    nt, -17, nt, 102
CCOc1ccc(N(CC(=O)NCc2ccc(C)cc2)S(=O)(=O)c2c(C)[nH]c(=O)[nH]c2=O)cc1
    114, -18, 86, 103
CN1C=CC=C/C1=C1\N=C(c2ccccc2)OC1=O
    66, -53, 60, 107
CCn1c(SC)nnc1C1CCCN1CC(=O)NCc1cccs1 (stereo not drawn)
    95, -18, 82, 101
O=C(c1cccc(F)c1)N1CCN(C(=O)c2cnn3cc(Br)cnc23)CC1
    94, -7, 108, 100
CCOc1ccc2nc(C)cc(Nc3ccccc3OCC)c2c1
    87, 4, 76, 158
CCOC(=O)C1=C(C)N=c2s/c(=C\c3ccc(OC)c(O)c3)c(=O)n2C1c1ccc(SC)cc1 (stereo not drawn)
    nt, -9, nt, 103
CC(C)c1ccc(-c2ccnc3c(C(=O)O)cnn23)cc1
    nt, -68, nt, 108
Cc1c(NC(=O)C(F)(F)F)ccc2nc3c(=O)n(C)c(=O)n(C)c3nc12
    90, -67, 83, 103
O=C1Nc2ccccc2Oc2ncccc21
    103, 0, 86, 110
O=C(/C=C/c1cccs1)C(C(=O)c1ccccc1)=C1SCCCCS1
    96, -9, 87, nt
Cc1cc(NC(=O)c2ccccc2)n(-c2nc3ccccc3[nH]2)n1
    83, -5, 80, nt
Cc1noc(C)c1Cc1ccc(C(=O)O)o1
    82, -25, 91, 102
CN(C)CCNC(=O)C1CCN(Cc2cc3ccccc3n2Cc2ccccc2)CC1
    142, nt, 90, 96

(listing goes on)
The line under a structure holds: Sa growth inh, HCMV UL50-53 inh, Sa growth inh second temp, GIV-Gai inh
O=C1COc2ccc(S(=O)(=O)N3CCCC(C(=O)NC4CCCC4)C3)cc2N1 (stereo not drawn)
    nt, -5, nt, 104
CC1CCCN(c2ccc(NC(=O)C3CCC3)c(C(=O)O)c2)C1 (stereo not drawn)
    nt, -35, nt, 97
CC(=O)Nc1ccc(S(=O)(=O)NC2CC3CCC(C2)N3C)cc1 (stereo not drawn)
    91, -13, 86, 98
Cc1nc(Cc2nnc(SCC(=O)NC(C)(C)C)o2)cs1
    88, -7, 94, nt
CCc1nn(-c2ccccc2)c2c1CN(C(=O)NC)C(c1ccccc1)c1cccn1-2 (stereo not drawn)
    nt, -18, nt, 102
CC(C)(C)C(=O)NC(=S)NC1CCSC1=O (stereo not drawn)
    110, 0, 100, 108
Cc1ccc(NC(=O)N2CCCn3c(SCc4ccc(F)cc4)nnc32)cc1
    101, -23, 88, 104
Cc1ccc(/C=C2\CCCC(CN(C)C)C2=O)cc1 (stereo not drawn)
    -0.2*, -13, -0.8*, 93
CC1(C)NC(=S)N(c2ccccc2)N1
    94&95, 15&-2, 96&90, 97&104
CC(=O)NC1=CC(=O)c2nonc2C1=O
    -0.7*, 86*, -0.7*, 4.4*
CCOC(=O)c1ccc(OCC#Cc2ccc(C(F)(F)F)cn2)cc1
    105, -16, 88, 102
COc1ccc(S(=O)(=O)N2CCN=C2N2CCN(c3ccc(F)cc3)CC2)cc1
    nt, -13, nt, 102
CCCC1=Nc2cc(C(=O)NC3CCCC3)ccc2Sc2ccccc21
    127, nt, 88, 108
CC(C)(C)C(=O)Nc1cc(NC(=O)C(C)(C)C)cc(C(=O)Nc2ccc(Oc3ccccc3)cc2)c1
    95, -12, 87, nt
O=C(CSc1nc2c(oc3ccccc32)c(=O)n1Cc1ccco1)Nc1ccccc1Cl
    112, -28, 93, 103

Compound profiles, from the list above. Order of values: Sa growth inh	HCMV UL50-53 inh	Sa growth inh second temp	GIV-Gai inh
CC(C)(C)C(=O)NC(=S)NC1CCSC1=O (stereo not drawn) as listed: 110	0	100	108
CCc1nn(-c2ccccc2)c2c1CN(C(=O)NC)C(c1ccccc1)c1cccn1-2 (stereo not drawn) as listed: nt	-18	nt	102
CC1CCCN(c2ccc(NC(=O)C3CCC3)c(C(=O)O)c2)C1 (stereo not drawn) as listed: nt	-35	nt	97
CCOC(=O)c1ccc(OCC#Cc2ccc(C(F)(F)F)cn2)cc1 as listed: 105	-16	88	102
CC(=O)Nc1ccc(S(=O)(=O)NC2CC3CCC(C2)N3C)cc1 (stereo not drawn) as listed: 91	-13	86	98

Structures from the list above containing a CF3 group (2):
The line under a structure holds: Sa growth inh, HCMV UL50-53 inh, Sa growth inh second temp, GIV-Gai inh
Cc1c(NC(=O)C(F)(F)F)ccc2nc3c(=O)n(C)c(=O)n(C)c3nc12
    90, -67, 83, 103
CCOC(=O)c1ccc(OCC#Cc2ccc(C(F)(F)F)cn2)cc1
    105, -16, 88, 102

Further results follow:
The line under a structure holds: Sa growth inh, HCMV UL50-53 inh, Sa growth inh second temp, GIV-Gai inh
N#Cc1cc2cc3c(cc2nc1SCC(=O)NC1CCCCC1)OCCO3
    109, -15, 91, 101
CCOc1cccc(C(=O)Nc2ccc3c(c2)NC(=O)CO3)c1
    nt, 3, nt, 105
COc1cccc(C(=O)c2sc(NC(C)C)nc2N)c1
    102, -71, 95, 101
COc1ccc(C2=C(C)C(N3CCN(c4ccc(OC)cc4)CC3)=NS2(=O)=O)cc1
    119, -12, 90, 95
Cc1cc2cccc(C)c2nc1SCC(=O)O
    114, -20, 74, 98
Cc1ccc(-c2ccc(=O)n(C(C)C(=O)N3CCc4ccccc43)n2)cc1 (stereo not drawn)
    nt, -5, nt, 100
CCCCCn1cc2c(c1-c1ccc(Br)cc1)c(=O)n(C)c(=O)n2C
    108, -29, 84, 99
O=C(NCCCN1CCOCC1)c1cc2c(s1)CCC2
    83, 20, 100, nt
CC(C)S(=O)(=O)c1ccc(N2CCN(c3ccccc3)CC2)nn1
    nt, -19, nt, 99
Cc1cccc(C)c1NC(=O)c1c(C)oc2c1C1=NCCN1C=N2
    92, nt, 92, 102
Cc1cc(O)cc(=O)n1Cc1cccnc1
    112, nt, 87, 97
CCOc1ccccc1NC(=O)c1cc(S(=O)(=O)NC2CCCC2)ccc1F
    93, nt, 94, 106
c1cc2nncn2nc1NCCN1CCOCC1
    97, 2, 84, 101
C#CCSc1nc2c(c(=O)[nH]1)C(c1cc(F)ccc1F)CC(=O)N2 (stereo not drawn)
    nt, -14, nt, 102
CC1Cc2ccccc2N1C(=O)C1CCCCN1S(=O)(=O)c1ccc(Cl)cc1 (stereo not drawn)
    109, -30, 83, nt

The list goes on.
The line under a structure holds: Sa growth inh, HCMV UL50-53 inh, Sa growth inh second temp, GIV-Gai inh
Cc1ccccc1NC(=O)c1c(NC(=O)C(C)Oc2cccc(Cl)c2)sc2c1CCCC2 (stereo not drawn)
    100, -29, 85, 101
CCCc1cc(=O)[nH]c(SCc2ccc(C#N)cc2)n1
    101, -35, 77, 103
Cc1cccc(OCC(=O)Nc2ccc(Cl)c(-c3nc4ccccc4[nH]3)c2)c1
    96, -12, 78, 98
O=C(O)CC1NCCc2ccccc21 (stereo not drawn)
    nt, -84, nt, 97
CC(C)CCN(Cc1ccco1)C(=O)c1cc2c(s1)-c1ccccc1OC2
    94, -14, 76, 101
